# From PubChem
# V. cholerae motility: Vibrio cholerae motility inhibitors, OD read-out (AID 588778); Vibrio cholerae motility, OD read-out; higher % means a stronger effect; test concentration not given here; primary cut-off and reference of the scale not given here; strong numbers were not always called active; inhibition, %; hits with a dose series show IC50 in µg/mL; 10,000 tested, under 10 active; in the data active = confirmed in a dose series
# V. cholerae motility viability: further read-out of V. cholerae motility, marked with its call; inhibition, %; measured here: bacterial viability at 10 ug/mL;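 higher means fewer living bacteria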
# Active calls of the source: *. This is a subset; the hit share may differ from the screen's.
SMILES,V. cholerae motility,V. cholerae motility viability
O=S(=O)(NCC1CCCO1)c1ccc2oc3ccc(S(=O)(=O)NCC4CCCO4)cc3c2c1 (stereo unspecified),-1%,-7
O=C(/C=C\c1ccccc1)Nc1ccc2oc(-c3ccncc3)nc2c1,9%,-3
O=C(CNC(=O)c1ccco1)c1ccc(F)cc1,8%,16
CCc1ccc(OCCNc2nc(C)c(Br)c(=O)[nH]2)cc1,21%,16
FC(F)(F)c1ccc(Nc2nc(-c3ccncc3)cs2)cc1,-11%,-8
O=C(Nc1ccc2c3c(cccc13)CC2)c1cc(-n2cnnc2)ccc1Cl,18%,33
COc1ccc(NC(=O)c2ccco2)cc1NC(=S)NC(=O)COc1ccccc1,14%,27
Cc1nc(SCC(=O)Nc2ccc(Cl)cc2)c2ccsc2n1,0%,10
CCC(Oc1ccccc1)C(=O)Nc1cccc(Cl)c1Cl (stereo unspecified),10%,1
COc1ccc(NC(=O)CSc2nc(-c3ccccc3)cc(=O)[nH]2)cc1OC,1%,-4
COCc1cc(=O)[nH]c(SCC(=O)Nc2ccc(-c3nc4ccc(C)cc4s3)cc2)n1,-6%,-7
COc1ccc(Nc2nc(N)nc(CN3C(=O)c4ccccc4C3=O)n2)cc1,0%,-2
COc1ccc(CN2CCOC(=O)C2=O)cc1OC,-7%,-4
O=C(O)c1cccnc1OCc1ccccc1,-6%,-1
O=C1OC(c2nn3c(-c4ccco4)nnc3s2)Cc2ccccc21 (stereo unspecified),1%,1
O=C(C[n+]1cccc(CO)c1)Nc1nc2ccccc2s1,-4%,-5
COc1cc(CNC(=O)OCC(C)C)cc(OC)c1OC,-3%,1
O=C1CC(c2ccc(F)cc2)SC(N2CCc3ccccc32)=N1 (stereo unspecified),-9%,-3
COc1c(S(=O)(=O)N2CCCN(S(=O)(=O)c3ccc(Cl)c(Cl)c3OC)CC2)ccc(Cl)c1Cl,9%,22
CCC(C)c1ccc(NC(=O)N2c3ccccc3Sc3ccccc32)cc1 (stereo unspecified),63%,18
COc1ccc(C(=O)Nc2nc(C(F)(F)F)c(-c3ccccn3)s2)cc1OC,-12%,-9
CCc1c(C(=O)NNC(=S)Nc2ccc(Br)cc2Cl)csc1C,15%,8
CSc1nnc(NC(=O)CCCN2C(=O)c3cccc4cccc(c34)C2=O)s1,-11%,-1
COc1cc(NS(=O)(=O)c2ccc(NC(=O)NC3CCCCC3)cc2)nc(OC)n1,4%,3
COc1ccc(C(=O)Nc2nc(C)c(C(C)=O)s2)c(OC)c1,-3%,6
CN(Cc1nc2ccccc2n1C)C(=O)c1ccco1,0%,-1
COc1cc2c(cc1NC(=O)c1ccccc1SCc1ccccc1)oc1ccccc12,-30%,-15
C=CCOc1ccc(CNC(C)C(O)c2ccccc2)cc1 (stereo unspecified),13%,5
Cc1nnc(SCC(=O)c2ccc3c(c2)Cc2ccccc2-3)s1,-5%,-2
Cc1nc2cc(NC(=O)N3CC4(C)CC3CC(C)(C)C4)ccc2n1C (stereo unspecified),-13%,-5
Cc1ccc(C(C)C)c(OCCCNCc2cccnc2)c1,10%,3
Cc1cc2nc(SCC(=O)c3ccc(O)cc3)[nH]c2cc1C,18%,3
O=c1[nH]c2ccc(S(=O)(=O)NCc3ccco3)cc2[nH]1,-6%,-3
CCc1nnc(NS(=O)(=O)c2ccc(NCc3cc(Br)ccc3O)cc2)s1,-13%,-5
O=C(CSc1n[nH]c(-c2ccco2)n1)N1CCCCC1,12%,19
CN1C(=O)C2N=NN(c3ccccc3)C2C1=O (stereo unspecified),10%,4
CCOC(=O)c1c(NC(=O)c2nn(CC)cc2Br)c(C#N)nn1-c1ccccc1,-5%,-5
O=C(OCc1ccc2nonc2c1)c1cc(-c2ccccc2)nc2ccccc12,-13%,-4
COc1ccc(C(=O)NCc2ccoc2C(=O)O)cc1,16%,8
COc1ccc(/C=C/c2nc(-c3ccncc3)no2)cc1OC,3%,-4
COC(=O)c1ccc(CSc2nc(-c3ccco3)cc(C(F)(F)F)n2)o1,23%,12
Nc1nonc1-c1nnnn1CC(=O)Nc1cccc2ccccc12,3%,-7
O=C(OCc1ccc([N+](=O)[O-])cc1)c1cccc2ccccc12,-4%,0
CC(=O)NC1CCCCC1Sc1ccccc1 (stereo unspecified),-4%,-9
Cc1c(C(Nc2ccccn2)c2ccc(Cl)cc2)c(=O)n(-c2ccccc2)n1C (stereo unspecified),-1%,5
O=S(=O)(Nc1ccccc1O)c1ccc2oc3ccc(S(=O)(=O)Nc4ccccc4O)cc3c2c1,36%,3
COc1ccc(/C=C2/SC(=O)N(CC(=O)Nc3nccs3)C2=O)cc1,-5%,-1
Cc1c(Cl)c([N+](=O)[O-])nn1CC(=O)Nc1ccccc1C(F)(F)F,-4%,5
CCn1cc(/C=C(/C#N)S(=O)(=O)c2ccccc2)cn1,21%,10
C=CCn1c(SCC(=O)Nc2ccccn2)nc2sc3c(c2c1=O)CC(C)(C)SC3,-5%,-4
# Carrying on:
SMILES,V. cholerae motility,V. cholerae motility viability
CS(=O)(=O)N1CCN(C(=O)C(Sc2ccccc2)c2ccccc2)CC1 (stereo unspecified),-23%,-5
O=C(Cn1cnc2ccccc2c1=O)Nc1nc2c(s1)CCCC2,0%,-2
Cc1cccc(N2C(=O)/C(=C\c3cn(CC(=O)Nc4ccccc4)c4ccccc34)C(=O)NC2=S)c1,-7%,6
CC(=O)Nc1nc(C(F)(F)F)c(-c2ccccc2)s1,15%,-3
Cc1ccc(-c2ccc(/C=C3\SC(N)=NC3=O)o2)c([N+](=O)[O-])c1,-17%,-3
CCCCOc1cccc(C(=O)NNC(=S)Nc2ccc(F)c(Cl)c2)c1,53%,8
O=C(CCCN1C(=O)c2cccc3cccc(c23)C1=O)Nc1ccon1,7%,0
O=C(Nc1nc(-c2ccc(Cl)cc2)cs1)c1cc(-c2ccc(Br)cc2)nc2ccccc12,-5%,-5
CCOc1ccc2c(c1)C(C)=CC(C)(C)N2C(=O)Nc1ccccc1F,11%,0
Cc1cc(Br)cc(C)c1OCC(=O)NCCc1nc2ccccc2[nH]1,1%,37
O=C(COc1ccc(Br)cc1Cl)NNC(=S)Nc1ccc(F)cc1F,6%,-4
CC1(C)CC(NC(=S)Nc2ccc(Cl)c(Cl)c2)CC(C)(C)N1,25%,8
CC1(C(=O)NN2CCOCC2)CC1(Cl)Cl (stereo unspecified),2%,-3
CN(C)Cn1c(O)c(N=NC(=O)c2ccccc2Cl)c2cc(Br)ccc21,30%,31
CCOc1ccc(-c2cnc(=S)[nH]c2N)cc1,14%,17
CC(=O)Oc1ccc(C)cc1-n1nc2ccccc2n1,5%,-6
O=C(Nc1ccon1)c1cc(Br)ccc1Cl,-13%,-10
C=CCOc1c(Cl)cc(Cl)cc1C=O,18%,18
Cc1ccc(S(=O)(=O)Cc2ccc(C(=O)Nc3cccc4cccnc34)cc2)cc1,-2%,-4
Nc1ccccc1-c1ccccc1NC(=O)C(=O)O,3%,-11
O=C(CN(Cc1ccc(F)cc1)S(=O)(=O)c1ccccc1)NCc1ccco1,7%,0
COc1ccccc1CNC(=O)c1sc2cc(C)ccc2c1Cl,-7%,1
O=C(N1CCN=C1c1ccccc1)N1c2ccccc2Sc2ccccc21,4%,1
Cc1cc(CSc2ccccc2)ccc1NC(=O)CN1C(=O)c2cccc3cccc1c23,2%,2
O=C(OC1CCc2ccccc2C1=O)c1ccccc1O (stereo unspecified),29%,12
COC(=O)c1ccc(CN(Cc2ccc(C(=O)OC)o2)C(C)(C)C)o1,2%,-1
CSc1ccc(C(=S)N2CC(C)OC(C)C2)cc1 (stereo unspecified),16%,5
Cc1cc(C(F)(F)F)nc(Nc2nc3ccccc3o2)n1,-5%,-4
Cc1cc(C)nc(/N=C(/N)N2N=CCC2c2ccccc2)n1 (stereo unspecified),11%,7
Cc1cn(C2CC(O)C(CO)O2)c(=O)n(C)c1=O (stereo unspecified),-7%,-4
O=C(Nc1cc(C(F)(F)F)ccc1N1CCOCC1)c1cc(Br)ccc1Cl,-9%,5
COc1cc(-c2nc3sc4c(c3c(=O)[nH]2)CCC(C(C)(C)C)C4)cc(Cl)c1OS(C)(=O)=O (stereo unspecified),-13%,-7
Clc1ccc(OCc2cccs2)c(CNCc2cccnc2)c1,13%,2
CCOC(=O)c1nnn(Cc2ccccc2)c1N,6%,3
N#C/C(=C\C1=Cc2ccccc2OC1)S(=O)(=O)c1ccc(Br)cc1,-2%,-3
COc1ccc2c(Cl)c(C(=O)Nc3c(C)nn(Cc4ccccc4C)c3C)sc2c1,-13%,-2
O=C(NC(=O)C(Cl)(Cl)Cl)NC1CCCC1,-16%,4
O=C(Nc1cc(-c2nc3ccccc3[nH]2)ccc1Cl)c1ccco1,8%,-4
COC(=O)C1=C(C)N(Cc2ccco2)C(=O)C1,4%,3
O=C(CSc1nnnn1-c1ccccc1)N1c2ccccc2SC2C=CC=CC21 (stereo unspecified),-20%,-10
O/N=C/c1cc[n+](C(c2ccccc2)c2ccccc2)cc1,-6%,-4
O=C(Nc1ccc(F)c(F)c1)NC1CCCCC1,39%,7
Cc1nn(S(=O)(=O)c2cccc([N+](=O)[O-])c2)c(C)c1Br,5%,-3
c1ccc2nc3c(nc2c1)CCc1nonc1-3,0%,-1
Cn1nnnc1SCCNCC#Cc1ccccc1,18%,12
Cn1c(=O)c2ncn(CC(=O)Nc3ccc(-c4cc5ccccc5oc4=O)cc3)c2n(C)c1=O,6%,-6
CCSc1ccccc1C(=O)Nc1ccc(S(=O)(=O)Nc2ncccn2)cc1,1%,-3
O=C(NNC(=O)C1c2ccccc2Oc2ccccc21)Nc1ccc2c(c1)OCO2,-11%,-3
NC(=O)Cc1nc(-c2ccc(F)cc2)cs1,10%,-3
COC(=O)c1ccc(NC(CNS(=O)(=O)c2ccccc2)c2ccccc2)cc1 (stereo unspecified),-6%,3
# Carrying on.
SMILES,V. cholerae motility,V. cholerae motility viability
CCN(CC)c1ccc(C(O)c2nc3ccccc3n2CC)cc1 (stereo unspecified),38%,11
O=c1[nH]c2ccc(C(F)(F)F)cc2n1-c1ccccc1,-6%,-2
CC1(C)CC(NC(=S)NC2CC2)CC(C)(C)N1,3%,-4
O=C(CC12CC3CC(CC(C3)C1)C2)Nc1ccc2[nH]c(=O)[nH]c2c1,-1%,-16
CCN(C(=O)CN1CCC2(CC1)OCCO2)c1nc2ccc(C)cc2s1,1%,-4
O=C(COc1c(-c2ccccc2)oc2ccccc2c1=O)NCc1ccco1,5%,-2
O=C(NCc1cccs1)c1cc(Br)cs1,19%,-2
CNC(=O)C(=O)Nc1c(F)cc(F)cc1Br,8%,36
CSC1=NC(C)(C)Cc2cc3c(cc21)OCCO3,1%,-2
CCN=C(NS(=O)(=O)c1ccc(Br)cc1)c1ccc(Cl)cc1,7%,0

# Already shown: entries from further up.
SMILES,V. cholerae motility,V. cholerae motility viability
CSc1nnc(NC(=O)CCCN2C(=O)c3cccc4cccc(c34)C2=O)s1,-11%,-1
COc1cc(NS(=O)(=O)c2ccc(NC(=O)NC3CCCCC3)cc2)nc(OC)n1,4%,3
COc1ccc(C(=O)Nc2nc(C)c(C(C)=O)s2)c(OC)c1,-3%,6
CN(Cc1nc2ccccc2n1C)C(=O)c1ccco1,0%,-1
COc1cc2c(cc1NC(=O)c1ccccc1SCc1ccccc1)oc1ccccc12,-30%,-15
C=CCOc1ccc(CNC(C)C(O)c2ccccc2)cc1 (stereo unspecified),13%,5
Cc1nnc(SCC(=O)c2ccc3c(c2)Cc2ccccc2-3)s1,-5%,-2
Cc1nc2cc(NC(=O)N3CC4(C)CC3CC(C)(C)C4)ccc2n1C (stereo unspecified),-13%,-5
Cc1ccc(C(C)C)c(OCCCNCc2cccnc2)c1,10%,3
Cc1cc2nc(SCC(=O)c3ccc(O)cc3)[nH]c2cc1C,18%,3
O=c1[nH]c2ccc(S(=O)(=O)NCc3ccco3)cc2[nH]1,-6%,-3
CCc1nnc(NS(=O)(=O)c2ccc(NCc3cc(Br)ccc3O)cc2)s1,-13%,-5
O=C(CSc1n[nH]c(-c2ccco2)n1)N1CCCCC1,12%,19
CN1C(=O)C2N=NN(c3ccccc3)C2C1=O (stereo unspecified),10%,4
CCOC(=O)c1c(NC(=O)c2nn(CC)cc2Br)c(C#N)nn1-c1ccccc1,-5%,-5
O=C(OCc1ccc2nonc2c1)c1cc(-c2ccccc2)nc2ccccc12,-13%,-4
COc1ccc(C(=O)NCc2ccoc2C(=O)O)cc1,16%,8
COc1ccc(/C=C/c2nc(-c3ccncc3)no2)cc1OC,3%,-4
COC(=O)c1ccc(CSc2nc(-c3ccco3)cc(C(F)(F)F)n2)o1,23%,12
Nc1nonc1-c1nnnn1CC(=O)Nc1cccc2ccccc12,3%,-7
O=C(OCc1ccc([N+](=O)[O-])cc1)c1cccc2ccccc12,-4%,0
CC(=O)NC1CCCCC1Sc1ccccc1 (stereo unspecified),-4%,-9
Cc1c(C(Nc2ccccn2)c2ccc(Cl)cc2)c(=O)n(-c2ccccc2)n1C (stereo unspecified),-1%,5

# Going on with the list:
SMILES,V. cholerae motility,V. cholerae motility viability
CCN(CC)c1ccc(CNn2cnnc2)cc1,14%,20
O=C(NCc1ccccn1)c1cc(-c2ccc(Cl)cc2Cl)nc2ccccc12,-1%,-6
NC(Cc1c[nH]c2ccc(OCc3ccccc3)cc12)C(=O)O (stereo unspecified),-10%,-10
O=C(NCCSc1ccc(Cl)cc1)c1ccccc1I,10%,0
CC(NC(=O)C(c1ccccc1)c1ccccc1)C(=O)N1CCOCC1 (stereo unspecified),6%,-3
O=C(COc1ccc([N+](=O)[O-])cc1)Nc1ccc2oc(-c3ccccc3Br)nc2c1,-13%,-9
COc1cc(/C=C2\Oc3ccccc3C2O)cc(Cl)c1OC (stereo unspecified),6%,0
O=C(Cc1ccccc1Cl)NC1=NCCS1,7%,0
Cc1ccc(OC(C)C(=O)NNC(=O)C(c2ccccc2)c2ccccc2)cc1 (stereo unspecified),17%,0

# 3 compounds from above, arranged by molecular weight, highest first:
SMILES,V. cholerae motility,V. cholerae motility viability
O=C(NCc1ccccn1)c1cc(-c2ccc(Cl)cc2Cl)nc2ccccc12,-1%,-6
CC(NC(=O)C(c1ccccc1)c1ccccc1)C(=O)N1CCOCC1 (stereo unspecified),6%,-3
CCN(CC)c1ccc(CNn2cnnc2)cc1,14%,20
